Screening results (PubChem BioAssay)
Proteasome disasm – blocks ATP-dependent breakdown of the yeast 26S proteasome; anti-FLAG beads, GFP-proteasome disassembly, flow cytometry; inhibition of disassembly, % (concentration not given with the values); actives 0.2% (n = 24,000); AID 751;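 active = above 40%; inconclusive = likely self-fluorescent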;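 note: plate controls were ATP control with full disassembly for no effect and ATP-gamma-S intact proteasomes for full effect; higher percent means more bead fluorescence retained so stronger block of disassembly; stock transfer was 100 nL into about 10 µL; wells with too few beads may also be inconclusive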
VCAM-1 rise – enhancers of VCAM-1 display on endothelial cells, cell-based, plate reader, pooled HUVEC, TNFa stimulus (AID 455) | HUVEC TNFa-induced VCAM-1 immunofluorescence, plate reader; numbers were filed only for top-ranked candidate wells | augmentation, % at 5 µM | actives 0.2% (n = 10,000);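 active = a compound raising TNF-alpha-driven VCAM-1 surface staining, with its hit status upheld on visual or statistical review; inactive = the rest, including hits rejected on review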;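 note: 0% = TNFa with vehicle and 100% = strongest image-checked hit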
* hit, by the source's call. These rows are one share of the data. The share of hits here may be higher or lower than overall.

The opening two compounds, to show the layout:
What do the screens show for `O=C(O)CCC(=O)c1c[nH]c2ccccc12`?
Proteasome disasm: 0.5; VCAM-1 rise: inactive

How did CCOC(=O)CCc1cccc2c1CCC2=O do in these assays?
Proteasome disasm: 4.4

Results, previewed entries included:
What do the screens show for `O=C(O)CCC(=O)c1c[nH]c2ccccc12`?
Proteasome disasm: 0.5; VCAM-1 rise: inactive

How did CCOC(=O)CCc1cccc2c1CCC2=O do in these assays?
Proteasome disasm: 4.4

What do the screens show for `CCN(CC)S(=O)(=O)c1ccc2oc(C(=O)O)c(C)c2c1`?
Proteasome disasm: 0.4; VCAM-1 rise: inactive

What do the screens show for `COc1ccc(C(CNC(=O)c2ccc(OCC3CCCO3)cc2)N2CCOCC2)cc1` (stereo not given)?
Proteasome disasm: 2.2; VCAM-1 rise: inactive

Results for COc1ccc(-c2nc(CS(=O)CC(=O)NCc3cccnc3)c(C)o2)cc1OC (stereo not given) ?
Proteasome disasm: 0.0

Results for Cn1c(=O)cc(OCC(=O)NCCCN2CCN(Cc3ccccc3)CC2)c2ccccc21 ?
Proteasome disasm: 1.6; VCAM-1 rise: inactive

What do the screens show for `Cc1ccc(-c2ccc(=O)n(CCC(=O)NCc3ccccn3)n2)cc1`?
Proteasome disasm: -2.0; VCAM-1 rise: inactive

How did COc1cc(NC(=O)C2CCN(S(=O)(=O)c3cccnc3)CC2)cc(OC)c1OC do in these assays?
Proteasome disasm: -0.3

What do the screens show for `CCCc1cc(=O)[nH]c(/N=C(\N)Nc2ccccc2)n1`?
Proteasome disasm: -0.1; VCAM-1 rise: inactive

What do the screens show for `O=C(CSc1nnc(CNC(=O)c2ccco2)o1)c1ccc(Cl)cc1`?
Proteasome disasm: -2.5

What do the screens show for `COc1ccc(CNC(=O)CCc2c(C)nc3ncnn3c2C)cc1`?
Proteasome disasm: -0.4

Results for COc1ccccc1N1CCN(S(=O)(=O)c2cnc[nH]2)CC1 ?
Proteasome disasm: -4.6

How did Cc1cccc2c1N(CC(=O)OC(C)C)C(=O)C2=O do in these assays?
Proteasome disasm: 1.8; VCAM-1 rise: inactive

Results for COC(=O)c1ccc(OCC2c3cc(OC)c(OC)cc3CCN2C(=O)C2CC2)cc1 (stereo not given) ?
Proteasome disasm: -0.5

How did Cc1ccccc1-n1nc2c(c1NC(=O)c1cc3ccccc3oc1=O)CS(=O)(=O)C2 do in these assays?
Proteasome disasm: -1.2

Results for COc1ccc(N(C)C(=O)CCS(=O)(=O)c2cccc3nonc23)c(OC)c1 ?
Proteasome disasm: -0.8; VCAM-1 rise: inactive

How did CCCCN(CC)C(=O)CSc1cc(=O)n(C)c2ccccc12 do in these assays?
Proteasome disasm: 0.3

What do the screens show for `COc1cccc(C2=NOC(C(=O)N3CCN(C(=O)c4ccco4)CC3)C2)c1` (stereo not given)?
Proteasome disasm: 0.8

What do the screens show for `O=C(CSc1oc(-c2ccccc2)nc1S(=O)(=O)c1ccc(F)cc1)NCC1CCCO1` (stereo not given)?
Proteasome disasm: 8.7

Results for COc1cc2[nH]c(=S)nc(NCC3CCCO3)c2cc1OC (stereo not given) ?
Proteasome disasm: -1.0

Results for O=C(CC1Nc2ccccc2NC1=O)NCc1cccnc1 (stereo not given) ?
Proteasome disasm: -0.2

How did CCS(=O)(=O)N1CCCC(C(=O)NCCN2CCC(Cc3ccccc3)CC2)C1 (stereo not given) do in these assays?
Proteasome disasm: 10

How did COc1ccc(CC(CC(=O)O)C(=O)Nc2ccccc2)cc1 (stereo not given) do in these assays?
Proteasome disasm: -0.4

What do the screens show for `CN(CC(=O)Nc1sccc1C#N)C1CCCCC1`?
Proteasome disasm: inconclusive; VCAM-1 rise: inactive

Results for Cc1ccccc1NS(=O)(=O)c1ccc2[nH]cc(C(=O)NCCCN3CCOCC3)c(=O)c2c1 ?
Proteasome disasm: -0.3

What do the screens show for `Cc1ccc(-c2nc(CS(=O)CC(=O)NCCN3CCOCC3)c(C)o2)cc1` (stereo not given)?
Proteasome disasm: -0.5

How did c1ccc(-c2noc(CN3CCN(c4ccccc4)CC3)n2)cc1 do in these assays?
Proteasome disasm: 2.4

How did CC(C)CCNC(=O)C1CCN(c2nc3ccccc3o2)CC1 do in these assays?
Proteasome disasm: -0.3

What do the screens show for `COCCNC(=O)c1c(N)n(/N=C/c2cccs2)c2nc3ccccc3nc12`?
Proteasome disasm: 3.5; VCAM-1 rise: 46

What do the screens show for `O=C(c1nnc(Cc2ccc(Cl)cc2)o1)N1CCc2ccccc2C1`?
Proteasome disasm: 26

Results for CCOc1ccc2cc(C#N)c(SCC(=O)N3CCCC3)nc2c1 ?
Proteasome disasm: -1.2; VCAM-1 rise: inactive

How did C=CCNC(=O)CNS(=O)(=O)c1ccc(F)cc1 do in these assays?
Proteasome disasm: -2.0; VCAM-1 rise: inactive

Results for COC(=O)c1cc(S(=O)(=O)NC2CCN(Cc3ccccc3)CC2)cn1C ?
Proteasome disasm: 3.4

Results for CCOC(=O)c1ccc(N=c2sc(C(=O)OC)cc(=O)n2Cc2ccco2)cc1 ?
Proteasome disasm: -0.5; VCAM-1 rise: inactive

How did CCOC(=O)N1CCC(N2Cc3cccc(C(=O)N4CCN(C5CCCCC5)CC4)c3C2=O)CC1 do in these assays?
Proteasome disasm: 2.6

How did Cn1c(C(=O)NCc2cccs2)cc2c(=O)n(C)c3ccccc3c21 do in these assays?
Proteasome disasm: 1.1

What do the screens show for `CCCS(=O)(=O)N1CCC(C(=O)NCCCN(CC)c2cccc(C)c2)CC1`?
Proteasome disasm: 0.7

Results for CSc1nc2ccccc2n1CC(=O)Nc1c(C)n(C)n(-c2ccccc2)c1=O ?
Proteasome disasm: 0.7

What do the screens show for `O=C(NCCCN1CCN(c2cccc(Cl)c2)CC1)C1CCC(=O)N1Cc1ccccc1Cl` (stereo not given)?
Proteasome disasm: 7.1

What do the screens show for `Nn1c(SCC(=O)Nc2ccc(Oc3ccccc3)cc2)nnc1C1CC1`?
Proteasome disasm: -1.5; VCAM-1 rise: inactive

How did Cc1ccc(CNC(=O)Cn2ccc3ccccc3c2=O)o1 do in these assays?
Proteasome disasm: -0.3

Results for Cc1ccc(CN2C(=O)CCC2C(=O)NC2CC2)cc1 (stereo not given) ?
Proteasome disasm: -2.4

Results for CCOC(=O)/C=C1\SCC(=O)N1Cc1ccc(Br)cc1 ?
Proteasome disasm: 9.6; VCAM-1 rise: inactive

How did Cc1c(Cl)cccc1NC(=O)CN1C(=O)CSc2ncccc21 do in these assays?
Proteasome disasm: 1.2

How did COc1ccc(-c2cc(C(=O)Nc3cc(OC)c(OC)c(OC)c3)no2)cc1OC do in these assays?
Proteasome disasm: -2.7

Results for CCOc1cc2[nH]c(=S)n(CCOC)c(=O)c2cc1OCC ?
Proteasome disasm: -2.8

How did Cc1cccc(CN2CCC(CNC(=O)C3CCCN(S(=O)(=O)c4cnc[nH]4)C3)CC2)c1 (stereo not given) do in these assays?
Proteasome disasm: 6.1; VCAM-1 rise: inactive

Results for CCN1CCCC1CNC(=O)CSCc1nc(-c2ccccc2C)oc1C (stereo not given) ?
Proteasome disasm: 9.3

Results for COc1ccccc1C1/C(=C(/O)c2ccccc2)C(=O)C(=O)N1CC(C)C (stereo not given) ?
Proteasome disasm: -0.8; VCAM-1 rise: inactive

Results for CCC(=O)N1C(C(=O)N2CCCC2)CSC1c1ccc(OC)cc1 (stereo not given) ?
Proteasome disasm: -0.5

How did CC12CC(NC(=O)N1Cc1ccccc1)c1ccccc1O2 (stereo not given) do in these assays?
Proteasome disasm: -1.4

Results for Cn1c(=O)c2c(nc(Br)n2CCSc2ncccn2)n(C)c1=O ?
Proteasome disasm: 0.3; VCAM-1 rise: inactive

How did CCOC(=O)N1CCC(N2Cc3cccc(C(=O)NCC4CCN(CC(C)C)C4)c3C2=O)CC1 (stereo not given) do in these assays?
Proteasome disasm: 7.3

What do the screens show for `COc1ccccc1C(=O)N1CCN(C(=O)COc2cccc(C)c2)CC1`?
Proteasome disasm: -0.1; VCAM-1 rise: inactive

Results for O=C(Nc1ccccc1Cl)c1ccc2c(c1)N(Cc1ccc(F)cc1)C(=O)CS2=O (stereo not given) ?
Proteasome disasm: -0.5

Results for N=c1c(C(=O)NC2CCCC2)cc2c(=O)n3ccccc3nc2n1C1CCCC1 ?
Proteasome disasm: 9.7

Results for COc1cc2c(C#N)c(N3CCOCC3)nc(N)c2c(N)n1 ?
Proteasome disasm: 3.6; VCAM-1 rise: inactive

What do the screens show for `CC1CN(C(=O)c2ccccc2)OC(c2ccc3c(c2)OCO3)O1` (stereo not given)?
Proteasome disasm: -0.6

What do the screens show for `CC1CCc2nn(CC(=O)NCc3ccc(F)cc3)cc2C1` (stereo not given)?
Proteasome disasm: -4.2; VCAM-1 rise: inactive

How did CCN(CC)CCn1c(OC)cc(=O)[nH]c1=O do in these assays?
Proteasome disasm: -0.6; VCAM-1 rise: inactive

How did Cc1nnc(SCC(=O)Nc2cc(C(F)(F)F)ccc2N2CCOCC2)o1 do in these assays?
Proteasome disasm: -1.4; VCAM-1 rise: inactive

How did O=c1c2cn[nH]c2nc(SCc2ccc3c(c2)OCCO3)n1-c1ccccc1 do in these assays?
Proteasome disasm: -0.6; VCAM-1 rise: inactive

What do the screens show for `CC(C)(C)OC(=O)N1CCCC1C(=O)NC(Cc1ccccc1)C(=O)O` (stereo not given)?
Proteasome disasm: -0.9; VCAM-1 rise: inactive

Results for Cc1ccc2[nH]c(=O)c(-c3noc(C(C)C)n3)cc2c1 ?
Proteasome disasm: -0.5

How did O=S(=O)(NCCC1=CCCCC1)c1cccc2nsnc12 do in these assays?
Proteasome disasm: -1.7

What do the screens show for `CCN(CC)S(=O)(=O)c1ccc2[nH]cc(C(=O)NCCC3=CCCCC3)c(=O)c2c1`?
Proteasome disasm: 1.0; VCAM-1 rise: inactive

How did CCSc1nnc2c(n1)OC=Nc1ccc(Br)cc1-2 do in these assays?
Proteasome disasm: -0.3; VCAM-1 rise: inactive

Results for CCc1ccccc1NC(=O)c1cc(-c2cccc(O)c2)on1 ?
Proteasome disasm: 0.2

Results for O=C(CSc1oc(-c2ccco2)nc1S(=O)(=O)c1ccc(Cl)cc1)NCC1CCCO1 (stereo not given) ?
Proteasome disasm: -1.3

How did CCOC(=O)c1c(C)n(C)c2ccc(OCC(O)CN3CCN(C)CC3)cc12 (stereo not given) do in these assays?
Proteasome disasm: 1.5

What do the screens show for `COCCOC(=O)C1=C(N)OC2=C(C(=O)CC(C)(C)C2)C1c1cccnc1` (stereo not given)?
Proteasome disasm: 0.1; VCAM-1 rise: inactive

Results for CC1=NC(C)Cc2ccccc21 (stereo not given) ?
Proteasome disasm: -2.3

What do the screens show for `COc1ccccc1-n1c(=O)[nH]c2c(C(N)=O)nc(-c3cccnc3)nc21`?
Proteasome disasm: -0.9; VCAM-1 rise: inactive

How did COc1ccc(NC(=O)c2cc3ccccn3n2)cc1 do in these assays?
Proteasome disasm: 1.2

Results for CC(=O)NC1(C(F)(F)F)C(=O)NC(C)=C1C#N (stereo not given) ?
Proteasome disasm: -2.1

Fetched by structure from the entries so far (four):
What do the screens show for `COc1ccccc1-n1c(=O)[nH]c2c(C(N)=O)nc(-c3cccnc3)nc21`?
Proteasome disasm: -0.9; VCAM-1 rise: inactive

How did CCSc1nnc2c(n1)OC=Nc1ccc(Br)cc1-2 do in these assays?
Proteasome disasm: -0.3; VCAM-1 rise: inactive

What do the screens show for `CC(C)(C)OC(=O)N1CCCC1C(=O)NC(Cc1ccccc1)C(=O)O` (stereo not given)?
Proteasome disasm: -0.9; VCAM-1 rise: inactive

Results for CCc1ccccc1NC(=O)c1cc(-c2cccc(O)c2)on1 ?
Proteasome disasm: 0.2

Additional records follow:
How did Cc1cc(C)n(CC(=O)n2c3c(c4ccccc42)CCCC3)n1 do in these assays?
Proteasome disasm: 1.3; VCAM-1 rise: inactive

What do the screens show for `CCCS(=O)(=O)N1CCCC(C(=O)N2CCC(Cc3ccccc3)CC2)C1` (stereo not given)?
Proteasome disasm: 1.2; VCAM-1 rise: inactive

How did Cc1ccc(S(=O)(=O)NC(CC(=O)O)c2ccco2)cc1 (stereo not given) do in these assays?
Proteasome disasm: 2.2

What do the screens show for `COc1ccc(S(=O)(=O)CCC(=O)N2CC(=O)N(CCc3ccccc3)C(=O)C2)cc1`?
Proteasome disasm: -1.2

Results for CC(=O)Nc1nonc1-c1nc2ccccc2n1Cc1ccccn1 ?
Proteasome disasm: 5.2

What do the screens show for `O=C(CSc1nccn1-c1ccc(Cl)cc1)Nc1ccc2c(c1)OCO2`?
Proteasome disasm: -1.2

What do the screens show for `CNC(=O)CN(C#N)c1nc(N(C)C)nc(N(C)C)n1`?
Proteasome disasm: -0.4; VCAM-1 rise: inactive

Results for Cc1ccccc1-c1nc(Cc2ccccc2)no1 ?
Proteasome disasm: 0.5; VCAM-1 rise: inactive

What do the screens show for `CCOC(=O)c1ccc(-n2c(=S)sc3c(=O)[nH]c(C)nc32)cc1`?
Proteasome disasm: -2.5

Results for CCOC(=O)N1CCN(S(=O)(=O)c2ccc(F)c(C(=O)Nc3cc(C)cc(C)c3)c2)CC1 ?
Proteasome disasm: -1.0; VCAM-1 rise: inactive

How did O=C(Cn1ncn2cccc2c1=O)N1CCCCC1 do in these assays?
Proteasome disasm: 1.1

How did O=C(NCc1cccnc1)c1ccc2c(=O)n(CCCN3CCCC3=O)c(=S)[nH]c2c1 do in these assays?
Proteasome disasm: 3.0

What do the screens show for `CCOCCCNC(=O)c1cc2c(-c3ccc(Cl)cc3)nn(C)c2s1`?
Proteasome disasm: -0.9

Results for CCOC(=O)c1c(NC(=O)c2cc(C3CC3)on2)sc(C(C)=O)c1C ?
Proteasome disasm: -1.1

How did CCOc1ccc(C2CC(c3ccc(CC)cc3)Nc3nc(N)nn32)cc1 (stereo not given) do in these assays?
Proteasome disasm: 0.1

Results for CC1CCCCN1CCNC(=O)c1ccc2c(=O)n(CCc3ccccc3)c(=O)[nH]c2c1 (stereo not given) ?
Proteasome disasm: 2.4; VCAM-1 rise: inactive
